NPYLR7 agonist = agonists of mosquito NPYLR7 receptor, primary screen, cell-based, Aedes aegypti, calcium fluorescence, mosquito biting behavior. activation, % at 10 µM. HEK293T NPYLR7/Galpha15, GCaMP6s calcium fluorescence. AID 1259423, 2018. 0.15% of 270,000 active; in the data active means activation above about 40%;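 further: 0% = vehicle and 100% = reference agonist at the receptor; some compounds past the cut are filed as inactive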
NPYLR7 agonist max-min = recorded beside NPYLR7 agonist, whose call it bears; activation, %; measured here: Max-Min RFU normalised activation; some inactives read as strong as hits;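 span of the calcium signal over five minutes; 0% = vehicle and 100% = native peptide agonist; compound fluorescence can raise it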
Active calls of the source: *; & = joins results of further samples.

`O=S(=O)(Nc1ccc(-c2ccc3nncn3n2)cc1)c1cccs1` gave NPYLR7 agonist -11 and NPYLR7 agonist max-min -5.
`Cc1cc(C(=O)NCC2Cc3cc(F)ccc3O2)c(C)o1` (stereo not given) gave NPYLR7 agonist 24 and NPYLR7 agonist max-min 31.
`Cc1cnccc1N1CCCN(C(=O)CC2COCCN2)CC1` (stereo not given) gave NPYLR7 agonist 3 and NPYLR7 agonist max-min 1.
COc1cccc(/C=C2/SC(=Nc3ccccc3Cl)NC2=O)c1OC was read as NPYLR7 agonist -7 and NPYLR7 agonist max-min -11.
For CC1(C(=O)Nc2ccc3c(c2)OCO3)CCN1C(=O)Cc1ccc(-c2ccccc2)cc1 (stereo not given) the results were NPYLR7 agonist 5 and NPYLR7 agonist max-min 3.
Screening Cc1ccsc1CNC(=O)Nc1ccnn1C1CCCC1 returned NPYLR7 agonist 13 and NPYLR7 agonist max-min 10.
Cc1cc(C)cc(NC(=O)CSc2nc(N)c(NC(=O)c3ccc(Br)o3)c(=O)[nH]2)c1 was read as NPYLR7 agonist -2 and NPYLR7 agonist max-min -2.
For Cc1cc(C)nc(N=C(N)Nc2ccccc2O)n1 the results were NPYLR7 agonist -2 and NPYLR7 agonist max-min -8.
Screening CCC(=O)Nc1ccc(N(C)C)c(CN(C(=O)C(C)(C)C)C2CC2)c1 returned NPYLR7 agonist -6 and NPYLR7 agonist max-min 7.
`COc1cccc(OC)c1OCc1nc(C(=O)NCc2ccccc2)cs1` gave NPYLR7 agonist 0 and NPYLR7 agonist max-min 12.
`Cc1ccc(CNC(=O)C(C)Sc2ccc(S(=O)(=O)N(C)C)cn2)cc1` (stereo not given) gave NPYLR7 agonist 0 and NPYLR7 agonist max-min 7.
For O=C(NCC1CCCO1)c1cc2n(n1)CCN(Cc1c(F)cccc1Cl)C2=O (stereo not given) the results were NPYLR7 agonist 17 and NPYLR7 agonist max-min 4.
Cc1c(C(=O)NCc2ccc3c(c2)OCO3)sc(=O)n1Cc1ccc(S(C)(=O)=O)cc1 was read as NPYLR7 agonist 12 and NPYLR7 agonist max-min 3.
Cc1cc(C)c(NC2=NS(=O)(=O)c3ccccc32)c(Cl)c1 was read as NPYLR7 agonist -3 and NPYLR7 agonist max-min -6.
Screening CCNC(=O)NC(=O)C(C)OC(=O)C1CSC2(C)CCC(=O)N12 (stereo not given) returned NPYLR7 agonist -1 and NPYLR7 agonist max-min 6.
COc1ccc(C)cc1NC(=O)c1c(C)c(N2CCOCC2)c(C)n1Cc1cccc(F)c1 was read as NPYLR7 agonist 21 and NPYLR7 agonist max-min 33.
O=C(Nc1ccccc1)N(Cc1ccccc1)C(=O)c1c2c(nc3ccccc13)CCNC2 was read as NPYLR7 agonist 1 and NPYLR7 agonist max-min 19.
Screening Cc1csc(Sc2nc(C)nc3[nH]ccc23)n1 returned NPYLR7 agonist 0 and NPYLR7 agonist max-min 18.
For CC(=O)Nc1cccc2c1N(C(=O)c1sc(-c3ccccc3)nc1C)CCC2 the results were NPYLR7 agonist 11 and NPYLR7 agonist max-min 11.
Screening COCCN(CC(=O)N(Cc1ccc2c(c1)OCO2)Cc1cccs1)C(=O)c1cccc(C(F)(F)F)c1 returned NPYLR7 agonist 20 and NPYLR7 agonist max-min 21.
`Fc1ccccc1C1CC(c2ccc(Br)cc2)=NN1c1nc(-c2ccccc2)c2cc(Cl)ccc2n1` (stereo not given) gave NPYLR7 agonist -8 and NPYLR7 agonist max-min -3.
Screening Cc1nn(C(C)C)c(C)c1S(=O)(=O)Nc1cc(C(=O)O)ccc1F returned NPYLR7 agonist 9 and NPYLR7 agonist max-min -6.
Screening O=C1OC(c2cccc(Cl)c2Cl)=N/C1=C/C=C/c1ccccc1 returned NPYLR7 agonist -5 and NPYLR7 agonist max-min 1.
For COc1cccc(-c2nnc(SCc3nc(C(=O)N4CCN(c5ccccc5F)CC4)cs3)n2-c2ccccc2)c1 the results were NPYLR7 agonist 21 and NPYLR7 agonist max-min 22.
Cc1ccc2nc(-c3ccccc3F)c(NCc3ccccc3)n2c1 was read as NPYLR7 agonist -8&6 and NPYLR7 agonist max-min -4&16.
O=C(Oc1cccc2cccnc12)c1ccc(Cl)c([N+](=O)[O-])c1 was read as NPYLR7 agonist -9 and NPYLR7 agonist max-min -12.
O=C(c1ccc(-n2cccn2)cc1)N1CCOC(Cc2ccccc2)C1 (stereo not given) was read as NPYLR7 agonist 14 and NPYLR7 agonist max-min 3.
`CN1C(=O)C2(c3ccccc31)C1CCCC=C1C(C#N)C(=N)C2(C#N)C#N` (stereo not given) gave NPYLR7 agonist 19 and NPYLR7 agonist max-min 6.
`Cc1nc(-c2ccc(Cl)cc2)nc(N2CCN(C(=O)/C=C/c3ccccc3)CC2)c1Cc1ccccc1` gave NPYLR7 agonist -4 and NPYLR7 agonist max-min 3.
Screening CC(=O)Nc1nc(COC(=O)c2[nH]c(C)c(C(=O)OC(C)C)c2C)cs1 returned NPYLR7 agonist 46* and NPYLR7 agonist max-min 45*.
Screening O=C(c1ccc[n+]([O-])c1)N1CCOC(CCc2ccccc2)C1 (stereo not given) returned NPYLR7 agonist 6 and NPYLR7 agonist max-min 5.
CCN(Cc1nc2ccccc2c(=O)[nH]1)Cc1nc(-c2cccs2)no1 was read as NPYLR7 agonist 8 and NPYLR7 agonist max-min 6.
For Cc1ccc(NC(=O)CSc2nc(=O)n3cccc(C)c3n2)cc1 the results were NPYLR7 agonist 5 and NPYLR7 agonist max-min 2.
Screening COc1ccccc1-n1c(=O)[nH]c2c(C(N)=O)nc(-c3cc(Br)ccc3O)nc21 returned NPYLR7 agonist 1 and NPYLR7 agonist max-min -1.
`CCOc1cc(C=CC(=O)Nc2nnc(SCC)s2)ccc1OC` gave NPYLR7 agonist 7 and NPYLR7 agonist max-min 2.
`NC1=NC(=Nc2ccccc2)c2ccccc21` gave NPYLR7 agonist -1 and NPYLR7 agonist max-min 71.
`Cc1ccc2cc(CCNC(=O)C(C)Oc3ccccc3)c(=O)[nH]c2c1C` (stereo not given) gave NPYLR7 agonist -1 and NPYLR7 agonist max-min -3.
`CSc1ccc(C=NNS(=O)(=O)c2cc(C)ccc2C)cc1` gave NPYLR7 agonist -1 and NPYLR7 agonist max-min -5.
`COc1cc(-c2nc(C(N)=O)c3[nH]c(=O)n(-c4cccc(Cl)c4)c3n2)cc(Br)c1O` gave NPYLR7 agonist 4 and NPYLR7 agonist max-min 5.
Cc1ccc(OCCSc2nc3ccccc3n2CCO)c(C(C)C)c1 was read as NPYLR7 agonist -22 and NPYLR7 agonist max-min -23.
For COc1ccccc1NC(=O)N(Cc1ccccc1OS(=O)(=O)c1ccc(F)cc1)CC1CCCO1 (stereo not given) the results were NPYLR7 agonist 9 and NPYLR7 agonist max-min 12.
Screening COC(=O)c1ccc(CNC(=O)CC2c3cccnc3C(=O)N2c2c(Cl)cccc2Cl)cc1 (stereo not given) returned NPYLR7 agonist 4 and NPYLR7 agonist max-min 5.
`Cc1cc(C2CCCN2Cc2ccc(C(=O)Nc3c(C)noc3C)cc2)on1` (stereo not given) gave NPYLR7 agonist 11 and NPYLR7 agonist max-min 5.
For CC1CCN(C(C)CNC(=O)CC(C)c2ccc(C(F)(F)F)cc2)CC1 (stereo not given) the results were NPYLR7 agonist -3 and NPYLR7 agonist max-min -3.
COc1ccc(C2NC(=O)N(C)C(C)=C2[N+](=O)[O-])cc1 (stereo not given) was read as NPYLR7 agonist -1 and NPYLR7 agonist max-min -7.
Screening CC1(C)C[C@@H]2C[C@@](C)(CN2C(=O)c2ccc(-n3cc(NC(=O)c4cccnc4)cn3)cc2)C1 returned NPYLR7 agonist 9 and NPYLR7 agonist max-min 1.
For CC(=O)c1c(C)nn(Cc2nc(C3CC3)nn2-c2ccccc2)c1C the results were NPYLR7 agonist 5 and NPYLR7 agonist max-min 0.
`CCCCn1c(-c2nnc(C(C)C)o2)cc2ccccc21` gave NPYLR7 agonist -1 and NPYLR7 agonist max-min -2.
Screening O=C1NN=C(c2ccccc2)C/C1=N/Nc1ncnc2ccccc12 returned NPYLR7 agonist 7 and NPYLR7 agonist max-min 5.
Screening COc1ccc(-n2c(Cc3ccccc3)nnc2SCCCCC(=O)N2CCN(C(=O)c3ccc(F)cc3)C(C)C2)cc1 (stereo not given) returned NPYLR7 agonist 15 and NPYLR7 agonist max-min 19.
For COc1ccc(NC(=O)C2CCN(C(=O)[C@H](C)NC(=O)Nc3ccccc3Br)CC2)cc1 the results were NPYLR7 agonist 10 and NPYLR7 agonist max-min 13.
For CN(C)CCNC(CC(=O)Nc1ccc2ccccc2c1)C(=O)O (stereo not given) the results were NPYLR7 agonist 0 and NPYLR7 agonist max-min -2.
For O=C(COc1ccc2ccccc2c1)NCc1cnn2ccccc12 the results were NPYLR7 agonist 3 and NPYLR7 agonist max-min -4.
N#CC1(c2ccccc2)CCN(C(=O)C2CC=CCC2C(=O)NCCc2ccccn2)CC1 (stereo not given) was read as NPYLR7 agonist 3 and NPYLR7 agonist max-min -3.
For COCCN(CC(=O)N1CCc2sccc2C1COc1ccccc1F)C(=O)C1CCCC1 (stereo not given) the results were NPYLR7 agonist -2 and NPYLR7 agonist max-min 1.
`CC(C)(C)n1nc2c(c1NC(=O)/C=C/c1ccccc1)CSC2` gave NPYLR7 agonist 2 and NPYLR7 agonist max-min 2.
For O=C(CCC1CCCN(C(=O)C2(c3ccc(Cl)cc3)CCC2)C1)NC1CC1 (stereo not given) the results were NPYLR7 agonist 15 and NPYLR7 agonist max-min 10.
CCOc1cc(C(=O)N2CCOC(COc3cccc(C(F)(F)F)c3)C2)ccc1OC (stereo not given) was read as NPYLR7 agonist 20 and NPYLR7 agonist max-min 20.
Screening NC1(C(=O)O)CCN(Cc2cnc(-c3cccc4ccccc34)nc2)C1 (stereo not given) returned NPYLR7 agonist 5 and NPYLR7 agonist max-min 2.
CC(C)c1nc(CN2C(=O)CC3(CCCCC3)CC2=O)cs1 was read as NPYLR7 agonist 4 and NPYLR7 agonist max-min 1.
Cc1cc(C(F)(F)F)nn1CC(=O)Nc1ccc2c(c1)OCO2 was read as NPYLR7 agonist 5 and NPYLR7 agonist max-min -5.
For O=C(NCc1nc(C2CC2)no1)c1nnn(-c2ccc(F)cc2)c1C1CC1 the results were NPYLR7 agonist -3 and NPYLR7 agonist max-min -4.
Screening Oc1cccc(-c2nccc3ccccc23)c1 returned NPYLR7 agonist -5 and NPYLR7 agonist max-min -6.
Screening CC(C)c1ccccc1NS(=O)(=O)c1cc(C(=O)O)ccc1Br returned NPYLR7 agonist -1 and NPYLR7 agonist max-min -3.
Screening Cn1c(=O)[nH]c(=O)c2c1nc(N1CCNCC1)n2Cc1ccc(F)cc1 returned NPYLR7 agonist -5 and NPYLR7 agonist max-min -6.
Screening COc1cc(OC)c(-c2c(-c3ccccc3)ncn2Cc2cc(C)[nH]n2)cc1OC returned NPYLR7 agonist 3 and NPYLR7 agonist max-min 3.
`CCc1ccc(CN(CC)Cc2cnc(C)[nH]2)cc1` gave NPYLR7 agonist 0 and NPYLR7 agonist max-min -6.
`Cc1[nH]c(=O)[nH]c(=O)c1-c1ccc(C(C)N2CCCC2)cc1` (stereo not given) gave NPYLR7 agonist -5 and NPYLR7 agonist max-min -5.
Screening Cc1ccc(S(=O)(=O)NCCc2ccccn2)cc1C returned NPYLR7 agonist -1 and NPYLR7 agonist max-min -4.
COc1ccc(CC(=O)N2[C@@H](c3ccccc3)[C@@H](C(=O)O)C[C@]23CCCCN(C)C3=O)cc1 was read as NPYLR7 agonist 4 and NPYLR7 agonist max-min 16.
Screening Cc1ccc(C(C)C)c(OCC(=O)Nc2ccc(N3CCN(C)CC3)nc2)c1 returned NPYLR7 agonist 24 and NPYLR7 agonist max-min 23.
Screening CC(=O)c1ccccc1N/C(=C/c1ccccc1[N+](=O)[O-])C(=O)O returned NPYLR7 agonist -1 and NPYLR7 agonist max-min -2.
`COCCCN(CC(=O)N(CCc1c[nH]c2ccccc12)Cc1ccc(F)cc1)C(=O)Nc1ccc(C)cc1C` gave NPYLR7 agonist 21 and NPYLR7 agonist max-min 27.
Screening COc1ncccc1C(=O)N(CC1CCN(Cc2ccccc2F)CC1)CC1CCCO1 (stereo not given) returned NPYLR7 agonist 18 and NPYLR7 agonist max-min 10.
[O-][N+](=Cc1ccccc1)c1ccccc1-n1nncc1-c1ccccc1 was read as NPYLR7 agonist 4 and NPYLR7 agonist max-min 25.
N#Cc1nccn1Cc1coc(-c2ccc(Br)cc2)n1 was read as NPYLR7 agonist 0 and NPYLR7 agonist max-min -1.

No new results follow: ten of the compounds above.
`CCc1ccc(CN(CC)Cc2cnc(C)[nH]2)cc1` gave NPYLR7 agonist 0 and NPYLR7 agonist max-min -6.
`Cc1[nH]c(=O)[nH]c(=O)c1-c1ccc(C(C)N2CCCC2)cc1` (stereo not given) gave NPYLR7 agonist -5 and NPYLR7 agonist max-min -5.
Screening Cc1ccc(S(=O)(=O)NCCc2ccccn2)cc1C returned NPYLR7 agonist -1 and NPYLR7 agonist max-min -4.
COc1ccc(CC(=O)N2[C@@H](c3ccccc3)[C@@H](C(=O)O)C[C@]23CCCCN(C)C3=O)cc1 was read as NPYLR7 agonist 4 and NPYLR7 agonist max-min 16.
Screening Cc1ccc(C(C)C)c(OCC(=O)Nc2ccc(N3CCN(C)CC3)nc2)c1 returned NPYLR7 agonist 24 and NPYLR7 agonist max-min 23.
Screening CC(=O)c1ccccc1N/C(=C/c1ccccc1[N+](=O)[O-])C(=O)O returned NPYLR7 agonist -1 and NPYLR7 agonist max-min -2.
`COCCCN(CC(=O)N(CCc1c[nH]c2ccccc12)Cc1ccc(F)cc1)C(=O)Nc1ccc(C)cc1C` gave NPYLR7 agonist 21 and NPYLR7 agonist max-min 27.
Screening COc1ncccc1C(=O)N(CC1CCN(Cc2ccccc2F)CC1)CC1CCCO1 (stereo not given) returned NPYLR7 agonist 18 and NPYLR7 agonist max-min 10.
[O-][N+](=Cc1ccccc1)c1ccccc1-n1nncc1-c1ccccc1 was read as NPYLR7 agonist 4 and NPYLR7 agonist max-min 25.
N#Cc1nccn1Cc1coc(-c2ccc(Br)cc2)n1 was read as NPYLR7 agonist 0 and NPYLR7 agonist max-min -1.

Some of the compounds tested; the hit share may differ from the screen's.
